Screens: PubChem BioAssay, ICCB-Longwood Screening Facility, Harvard Medical School
Ba CapD inh = Bacillus anthracis CapD inhibitors, primary screen, biochemical, fluorescence intensity | CapD gamma-glutamyltranspeptidase (Bacillus anthracis Ames Ancestor) | purified CapD enzyme, fluorescence intensity read-out; stronger effect = lower value; some hits fall short of the stated cut | z-score (no concentration beside the values) | hit rate 0.23% among 140,000 | AID 492967, 2010;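 active means z-score under -4 in either of two replicates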;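 further: stock transfer was 100 nL into about 40 µL; score is relative to mean and spread of the plate; one replicate is shown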
AID504770 = growth inhibition of E. coli YBA685, primary screen, V. cholerae RctB inhibitors; E. coli YBA685 rctB-dependent plasmid, OD600 growth, 3 h; stronger effect = lower value; z-score (no concentration beside the values); hit rate 0.27% among 130,000;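 active means z-score under -2 on both plates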;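 further: wells of about 30 µL received 100 nL stock; score is relative to mean and SD of the test wells; the first replicate is given; strong numbers were not always called active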
Active calls of the source: *; nt = not tested or not shown; & = joins results of further samples.

Molecule	Ba CapD inh	AID504770
CC(C)C(NC(=O)Cc1c[nH]c2ccccc12)C(=O)N1CCN(c2cnccn2)CC1 (centres undefined)	11	nt
COc1ccccc1-c1c(C)c(CC(C)C)nc(N)c1C#N	70	1
CCCOc1ccc(NC(=O)CC2SC(N)=NC2=O)cc1 (centres undefined)	0.3	-1.1
O=C(OC(C(=O)c1ccccc1)c1ccccc1)c1cnc(Cl)c(Cl)c1 (centres undefined)	0.01	0.1
N#CCCN/N=C/c1ccncc1	nt	-1.1
C[C@@H](O)[C@H]1C(=O)N2C(C(=O)O)=C(SCCN=CN)C[C@H]12	-0.76	nt
O=c1cc(-c2ccccc2)nc(SCc2ccccn2)[nH]1	nt	-1.1
COc1cc(Br)c(CNc2ccccc2)cc1OC	0.13	-2.2
CCOc1ccccc1N/C(SCc1cccc(F)c1)=C(/C#N)C(=O)NCc1cccs1	0.075	nt
CC(C)(C)c1cc2c(=O)[nH]nc(N)c2c(=O)[nH]1	1.4	-0.1
O=[N+]([O-])c1cc(C(F)(F)F)ccc1Oc1ccc(Cl)cc1Cl	-0.04	nt
O=C(COc1ncnc2ccc(Br)cc12)NCCN1C(=O)CSC1=O	nt	0.7
CC(C)CN(CC(C)C)c1nnc(NC(=O)Cn2c(=O)oc3ccccc32)s1	0.51	-1.1
O=C(NC1CCCCC1)[C@H]1CCCC[C@H]1C(=O)O	0.06	-0.2
CCOC(=O)n1c(=O)n(Cc2ccc(Cl)cc2Cl)c2ccccc21	-0.12	nt
Cc1ccc(-c2nc(CS(=O)(=O)CC(=O)N3CCCC3)c(C)o2)cc1	-0.21	-0.45
CN(C)C(=O)C1Cc2ccccc2CN1S(=O)(=O)c1cccs1 (centres undefined)	0.035	-0.4
CCOC(=O)C1=C(N)N(c2cccc([N+](=O)[O-])c2)C2=C(C(=O)CC(C)(C)C2)C1c1ccc2c(c1)OCO2 (centres undefined)	-0.55	nt
COC(=O)c1ccc(N=C/C(Br)=C/c2ccccc2)cc1	7.3	1.3
Cc1ccc(Cl)cc1NC(=O)Cc1nn(C)c(=O)c2ccccc12	nt	0.15

Part of the list above in a different format.
> O=C(NC1CCCCC1)[C@H]1CCCC[C@H]1C(=O)O
  Ba CapD inh: 0.06; AID504770: -0.2

> CC(C)CN(CC(C)C)c1nnc(NC(=O)Cn2c(=O)oc3ccccc32)s1
  Ba CapD inh: 0.51; AID504770: -1.1

> COc1ccccc1-c1c(C)c(CC(C)C)nc(N)c1C#N
  Ba CapD inh: 70; AID504770: 1

> CCOC(=O)n1c(=O)n(Cc2ccc(Cl)cc2Cl)c2ccccc21
  Ba CapD inh: -0.12; AID504770: nt

Continuation:
Molecule	Ba CapD inh	AID504770
Cc1c(Cl)cccc1NC(=S)N(N)CCO	-0.39	nt
NS(=O)(=O)c1ccc(CCNc2cc(C(=O)N3CCOCC3)c3ccccc3n2)cc1	nt	-1.6
Cc1cc(N2CCOCC2)ccc1/C=C1\NC(=O)N(Cc2ccccc2F)C1=O	0.03	2.4
CCOc1cc(C2C(C(=O)OC)=CN(Cc3ccc(OC)cc3)C=C2C(=O)OC)cc(Br)c1O	26	nt
Fc1ccc(-c2cc(-c3ccccc3)nc3ncnn23)cc1	25	0
CCOc1cccc(N2C(=O)/C(=C\c3ccc(N(CC)CC)cc3)C(=O)NC2=S)c1	-0.58	nt
Nc1nn(-c2ccccc2)nc1NC=O	nt	-0.9
O=S(=O)(NCC1CCN(S(=O)(=O)c2ccccc2)CC1)c1cccc(C(F)(F)F)c1	-0.11	-0.1
O=C1c2cccc3c(Br)ccc(c23)C(=O)N1CCc1ccccn1	0.27	nt
Cn1c(-c2ccccc2)c(/C=N/NC(=O)C2CC2)c2ccccc21	nt	-0.4
Cc1ccc2c(n1)sc1c(=O)n(-c3ccccc3)nnc12	-0.74	-0.15
COc1cc2c(cc1OC)C(C)N(C(=O)/C=C/c1ccccc1)CC2 (centres undefined)	nt	-0.9
O=C1Nc2ccccc2S/C1=C/Nc1ccc(Cl)cc1	-0.54	-1.1
O=C(CNCc1cccnc1)N1c2ccccc2Sc2ccc(Cl)cc21	0.015	nt
O=C(O)CCC1NC(=O)NC1=O (centres undefined)	nt	1.4
CCOC(=O)C1=C(C)NC(SCC(N)=O)=C(C#N)C1C1CC=CCC1 (centres undefined)	nt	-0.05
COCCN1C=C(C(=O)OC)C(c2ccccc2Cl)C(C(=O)OC)=C1	31	0.5
O=C1c2ccccc2-c2ncccc21	-0.66&-0.4	nt
Cc1c(-c2c(Cl)cccc2Cl)noc1C(=O)CN=S(C)(=O)c1ccc(C(F)(F)F)cn1 (centres undefined)	1.1	0.35
O=C(O)CC1ON(c2ccccc2)C(=S)N1c1ccccc1 (centres undefined)	0.055	1.3
O=C(O)c1cccc(S(=O)(=O)N2CCCCC2)c1	0.045	-0.6
COc1cc(/C=C2\SC(NC(C)=O)=NC2=O)ccc1OCc1ccccc1F	0.22	nt
O=C(NC1CCCCC1)C1C2C=CC3(CN(Cc4cccs4)C(=O)C13)O2 (centres undefined)	0.32	nt
c1ccc(-c2cnc(-c3ccccc3)cn2)cc1	nt	1.8
O=C(O)CC(CC(=O)Nc1cccc2c1CCCC2)c1ccccc1 (centres undefined)	0.53	-0.05
CN(Cc1ccccc1)C(=O)Nc1cn(C)c(=O)c2ccccc12	50	-0.65
CC(C)c1nnc(NC(=O)C2CCN(C(=O)c3ccco3)CC2)s1	nt	2.3
CCOC(=O)c1cc2cccc(NS(=O)(=O)c3ccc(OC)cc3)c2[nH]1	0.74	nt
CCOc1cc(/C=N/NC(=O)c2nnn(-c3nonc3N)c2C)ccc1OC(=O)N1CCOCC1	0.19	0.8
Cc1onc(-c2c(Cl)cccc2Cl)c1C(=O)Nc1ccccc1Oc1ccc(Cl)cc1Cl	-0.53	nt
COc1ccc(NC(=O)CSc2nc(-c3ccccc3)cc(=O)[nH]2)cc1	0.055	0.7
CCc1noc(C)c1C(=O)OCC(=O)c1ccc(Br)s1	nt	0
CCCCC(=C1C(=O)CCCC1=O)N1CCCC1	nt	0.15
CNC(=O)c1ccc(N2C(=O)C3C4C=CC(C4)C3C2=O)cc1 (centres undefined)	0.05	-0.05
Cc1cc(C(=O)Nc2ccccc2C(=O)O)c(C)o1	nt	-0.65
Cn1nc(-c2ccccc2)cc1NC(=O)c1cc(Cl)sc1Cl	-0.63	1.1
Cc1ccc(S(=O)(=O)NCc2ccco2)c(C)c1C	-0.12	-1.5
Cc1noc(C)c1COC(=O)C1c2ccccc2Oc2ccccc21	nt	-0.3
COc1ccc(O)c(/C=N/NC(=O)c2csc(CS(=O)(=O)Cc3ccco3)n2)c1	0.46	nt
COc1ccccc1CNC(=O)c1sc2ncnc(N3CCC(C)CC3)c2c1C	-0.29	nt
CCOC(=O)C1=C(C)OC(N)=C(C(=O)OCCOC)C12C(=O)Nc1ccccc12 (centres undefined)	-0.42	nt
Cc1noc(C)c1C(=O)N1CCCCC1c1ccccn1 (centres undefined)	0.94	-1.2
Cc1ccc(NC(=O)CC2Sc3ccc(C(F)(F)F)cc3NC2=O)c(C)c1 (centres undefined)	2.6	-0.05
Cc1cc2nc(Nc3ccccc3)c3ccccc3n2n1	nt	0.85
Nc1nc(=Nc2ccccc2)ss1	0.44	-4.2*
CCOC(=O)c1sc(=S)n(-c2ccc(F)c(Cl)c2)c1N	-0.53	nt
C/C(CS(=O)(=O)c1ccc(Cl)cc1)=N\O	-0.42	-0.95
COc1cc(C(=O)Nc2ccc3oc(-c4cccc(C)c4)nc3c2)cc(OC)c1OC	8.9	nt
CCN(CC)c1c(C#N)c(SCC(=O)c2cccs2)cc2c1CCCC2	1.2	-0.7
COc1ccccc1CN1COc2cc3c(cc2C1)OCO3	0.15	0.7
Clc1ccc(-c2cnc(Oc3cc(Cl)ccc3Cl)nc2)cc1	0.15	nt
O=C1C2C3c4ccccc4C(c4ccccc43)C2C(=O)N1c1ccccc1F (centres undefined)	-0.34	nt
CC1CCCC(NC(=O)CSC(=O)c2ccccc2)C1C (centres undefined)	-0.4	-1.1
CCOC(=O)Cn1c(N)c(C(=O)OC)sc1=S	-1.3	2.1
Cc1c(C(=O)NC2CCCCC2)sc2nc(-c3ccc(F)cc3)cn12	-0.26	0.15
c1ccc2nc(N3CCNCC3)ccc2c1	-0.1&-0.67	nt
CC1Cc2ccccc2N1C(=O)COc1ccc(-n2cnnn2)cc1 (centres undefined)	nt	1.4
CC(=O)Oc1ccc(C2Nc3ccc4ccccc4c3C3C=CCC32)c(OC(C)=O)c1 (centres undefined)	1.9	nt
COc1ccc(NC(=O)c2sc3nc(C)cc(C(F)(F)F)c3c2N)cc1	-0.31	nt
Nn1cnnc1SCc1ccccc1	-0.84	0.15

Following part.
Compound	Ba CapD inh	AID504770
COC(=O)CN1C=C(C(=O)OC)C(c2ccc(O)cc2)C(C(=O)OC)=C1	-0.31	2.1
Cc1c(N=Cc2cccc3ccccc23)c(=O)n(-c2ccccc2)n1C	0.05	nt
O=C1CC(c2n[nH]c(=S)o2)CN1c1ccc(Cl)cc1 (centres undefined)	-0.39	-0.25
CC(C)(C)C(=O)Nc1ccccn1	0.2	-1.3
COC(=O)c1c(NC(=S)NCc2ccco2)sc2c1CCC2	-1.5	-0.7
Cc1nc2ncnn2c(C)c1CCC(=O)NC1=NCCS1	nt	-0.4
CSc1nnc(CNC(=O)c2cccs2)n1-c1cccc(Cl)c1	-0.4	-1
CC1=C(C(=O)OCC2CCCO2)C(c2cccc([N+](=O)[O-])c2)C2=C(CC(c3cccs3)CC2=O)N1 (centres undefined)	0.005	nt
O=C(c1ccc(Br)o1)N1CCN(c2ccccc2)CC1	-0.34	-0.85
O=C(O)CCN=C1NC(=O)CS1	4.7	-1.2
N#Cc1c(N)nc(SCC(=O)c2ccc(O)c(O)c2)c(C#N)c1-c1cccc(Cl)c1	7.2	nt
CCCc1c(C(=O)NCc2ccncc2)cnn1-c1ccccc1	6.3	-0.4
CCCNS(=O)(=O)c1ccc(OCC(=O)NCc2ccccn2)cc1	nt	-0.05
C=CCN(CC=C)CC(O)Cn1cnc2c1c(=O)n(C)c(=O)n2C (centres undefined)	-0.49	-0.4
COc1cccc(-c2cc(C(=O)NCC(C)C)on2)c1	0.055	1
CC(C)CCNC(=O)c1cccc2c1-c1ccccc1C2=O	-0.42	-1.2
COc1ccccc1CC(=O)Nc1ccc(-c2noc(COc3ccc(Cl)c(C)c3)n2)cc1	-0.14	0.3
Cc1nn2c(nc1=O)NNC2(C)c1ccccc1 (centres undefined)	17	-0.85
CC(C)(C)NC[C@@H](O)COc1nsnc1N1CCOCC1	1.2	-0.1
CSc1ncc(C(=O)N2CCN(c3ccccc3F)CC2)c(C)n1	-0.92	0.85
CC(=O)N1C=Cc2ccccc2C1CC(=O)O (centres undefined)	nt	-0.2
CC(=O)N1CCOc2ccc(S(=O)(=O)NCc3ccccc3)cc21	-0.03	0
COc1cccc(-c2nc(NC(C)=O)c3c(=O)oc4ccccc4c3n2)c1	-0.28	nt
CC1CCCN(C(=O)Cc2cccc3ccccc23)C1 (centres undefined)	nt	-0.45
Cc1ccc(S(=O)(=O)n2c(SCC(=O)NCc3ccccc3)nc3ccccc32)cc1	0.28	nt
COc1ccc(C2C3=C(Nc4ncnn42)c2ccccc2OC3c2ccc(N(C)C)cc2)cc1 (centres undefined)	-0.73	nt
CC1=C(C(=O)Nc2cc(C)ccc2C)C(c2ccc(N(C)C)cc2)NC(=S)N1 (centres undefined)	-0.98	0.8
CCOCCC(=O)Nc1ccc2c(c1)OCCO2	-0.35	-0.95
O=C1c2cccnc2C(=O)N1CCc1ccc(S(=O)(=O)N2CCCC2)cc1	-0.54	0.35
O=C(O)CC1=C(c2ccc(F)cc2)CCC1=O	nt	1
O=C(O)c1ccc(Oc2ccccc2)cc1	0.45	0.75
Cc1cc(C)cc(NC(=O)N2CCSc3ccccc32)c1	-0.8	0.55
C[N+]1(C)C2CCC1CC(OC(=O)c1ccccc1)C2 (centres undefined)	2.5	-0.35
CC1=C(C(=O)OCC(C)C)C2(O)C(=O)c3ccccc3C2(O)N1 (centres undefined)	0.33	nt
CCOc1ccc2c(c1)-c1c(ssc1=S)C(C)(C)N2C(=O)CSc1ncn(C)n1	-0.8	nt
CCOC(=O)C1=C(C(=O)OCC)SC2(S1)C(C(=O)OCC)=C(C(=O)OCC)SC1=C2c2ccc(C)cc2NC1(C)C	-0.4	nt
N#Cc1cccc(S(=O)(=O)N2CCCC2c2ccc3c(c2)OCCCO3)c1 (centres undefined)	nt	-0.45
CCOC(=O)c1cc(-c2ccccc2)n(CCC(=O)Nc2ccccc2N2CCN(C)CC2)c1C	0.77	0.7
COc1ccccc1/C=C1\SC(N2CCN(c3ccccc3)CC2)=NC1=O	nt	0.35
CS(=O)(=O)c1ccc(NC(=O)c2ccc(Br)o2)cc1	nt	0.1
COc1cccc(OC)c1CNC(=O)Cc1nc(-c2ccc(Cl)cc2)sc1C	16	nt
CN(C(=O)Nc1ccccc1)c1c2c(nn1C)CCCC2	0.17	1.1
CCCN(CCC)S(=O)(=O)c1ccc(C(=O)Nc2c3c(nn2-c2ccc(C)cc2)CSC3)cc1	-0.035	nt
COC(=O)c1ccsc1NC(=O)c1ccc(C)cc1	15	0.3

Some of the compounds tested; rates above refer to the full screens.
